GALR2 ag: activates the human galanin receptor 2; O43603; GALR2-expressing cells, agonist activation read-out; activation, %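 (tested at 5 µM)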; 140,000 compounds, 0.48% hits;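 active = above mean plus 3 SD of all compounds, about 5% in these data, not always enough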;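 also: 0% = vehicle buffer wells and 100% = reference agonist at full effect; tested in CHO reporter cells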
Target sequence (O43603 whole entry, looked up): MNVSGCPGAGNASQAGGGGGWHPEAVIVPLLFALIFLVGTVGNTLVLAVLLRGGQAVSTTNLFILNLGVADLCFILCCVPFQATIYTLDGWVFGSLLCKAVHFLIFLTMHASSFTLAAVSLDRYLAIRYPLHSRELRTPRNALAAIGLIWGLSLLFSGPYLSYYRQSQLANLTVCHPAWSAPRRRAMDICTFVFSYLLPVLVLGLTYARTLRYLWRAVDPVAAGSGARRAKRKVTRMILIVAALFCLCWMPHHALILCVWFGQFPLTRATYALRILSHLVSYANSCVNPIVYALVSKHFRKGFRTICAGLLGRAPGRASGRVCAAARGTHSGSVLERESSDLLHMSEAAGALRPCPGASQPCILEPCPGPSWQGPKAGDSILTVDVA
PKD1 inh: inhibitors of human PKD1 kinase; Q15139; PKD1 kinase fluorescence polarization assay; inhibition, %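 (about 10 µM by stock and volumes)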; 200,000 compounds, 0.056% hits;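 active = inhibition of 50% or more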;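 also: controls were vehicle for no effect and a reference inhibitor for full effect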
RGS16-Gao: modulates binding between human RGS16 and Galphao. bead-based flow cytometry RGS16-Galphao binding, fluorescence; actives lie on both sides. binding response (% of control), % at 10 µM. 220,000 compounds, 0.38% hits. O15492+P09471;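 active = below 25% or above 175%, edge rows of some plates excepted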;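 also: Galphao activated by GDP with aluminum fluoride before binding; 100% = wells without compound and 0% = beads without RGS; some results beyond the cut were filed as inactive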
Target sequence (O15492 whole entry, looked up): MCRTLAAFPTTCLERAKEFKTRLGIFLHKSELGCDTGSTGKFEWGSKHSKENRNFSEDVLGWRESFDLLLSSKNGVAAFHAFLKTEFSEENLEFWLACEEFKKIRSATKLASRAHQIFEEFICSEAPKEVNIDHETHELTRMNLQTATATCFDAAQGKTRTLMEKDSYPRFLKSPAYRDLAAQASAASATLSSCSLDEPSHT
Target sequence (P09471 whole entry, looked up): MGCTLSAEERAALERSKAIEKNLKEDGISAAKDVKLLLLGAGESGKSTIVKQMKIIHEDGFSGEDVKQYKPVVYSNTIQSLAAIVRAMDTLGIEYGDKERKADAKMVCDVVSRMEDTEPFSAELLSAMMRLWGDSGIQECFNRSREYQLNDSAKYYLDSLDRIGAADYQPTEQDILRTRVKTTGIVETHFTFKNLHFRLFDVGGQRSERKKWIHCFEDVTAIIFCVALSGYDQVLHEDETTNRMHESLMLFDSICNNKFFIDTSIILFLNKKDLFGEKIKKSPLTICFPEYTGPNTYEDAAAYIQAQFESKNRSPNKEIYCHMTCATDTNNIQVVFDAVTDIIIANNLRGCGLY
HSV augment: HSV replication enhancement. 220,000 compounds, 0.005% hits. maximum fold increase. AID 1956. HSV replication augmentation in cells, fold increase;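 active = peak rise of 1.5-fold or more in the series; inconclusive = self-fluorescent or not available for retest; tested in PC3 cells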;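 also: first round at 10 µM; read as green reporter fluorescence; hits show the peak of a series up to 25 µM; 1 = signal of infected wells without compound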
Insulin prom inh: TRM-6 insulin promoter activity inhibition; TRM-6 cells (human fetal islet line), insulin promoter-eGFP reporter, imaging; reporter expression induced with tamoxifen; inhibition, % at 2 µM; 130,000 compounds, 0.9% hits; AID 1273;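 active = inhibition above the mean plus 3 SD, with well images judged a real hit on visual review, cut at about 60% in these data, passing the limit was not always enough; inconclusive = inhibition over the cutoff but images rejected on review; inactive = inhibition not above the cutoff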
Insulin prom inh cell count: second read-out of Insulin prom inh, no call of its own (marks repeat the call); normalized cell count, %; measured here: cell count, toxicity; reference of the scale not given here;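 cells exposed to compound for 48 h; stained nuclei by imaging scaled within each plate; lower means fewer cells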
HSV augment primary fold: also measured in HSV augment; calls as there; fold increase; compound at 10 µM; measured here: primary screen fold increase 10 uM; tested in PC3 cells;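 GFP signal in the first replicate; 1 = infected wells without compound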
* hit, by the source's call; i = inactive; ? = inconclusive; . = no result given.

SMILES	GALR2 ag	PKD1 inh	RGS16-Gao	HSV augment	HSV augment primary fold	Insulin prom inh	Insulin prom inh cell count
COCCNC(=S)N1CCC(c2nc(-c3ccc(F)cc3)no2)CC1	.	-11	94	i	1.1	25	113
COc1cc(NC(=O)CCNS(=O)(=O)c2ccc3c(c2)CCC(=O)N3)cc(OC)c1	-2.0	-6	105	i	0.91	-11	136
CC(=O)Nc1ccc(S(=O)(=O)NCC2CCC(C(=O)NCc3ccccc3)CC2)cc1 (stereo not drawn)	.	-10	125	.	.	29	65
COc1cc2cccc(OC)c(=O)c2c(O)c1OC	-0.7	-7	100	i	0.88	21	89
O=C(COC(=O)c1ccc(Sc2ccccc2)c([N+](=O)[O-])c1)NC1CCS(=O)(=O)C1 (stereo not drawn)	-0.1	1	107	i	1	-7	165
Nc1c(C(=O)c2ccccc2)sc2snc(SCC(=O)c3ccccc3)c12	79*	-5	102	.	.	-36	142
Nc1nc(Nc2cccc(F)c2)nc2ccccc12	-1.5	9	100	i	0.73	.	.
CCOc1ccc(NC(=O)CC2C(=O)N(c3ccc(OC)cc3)C(=O)N2CCc2ccc(OC)c(OC)c2)cc1 (stereo not drawn)	.	3	94	i	0.84	.	.
Cc1cc(C)nc(/N=C(\N)C2=C(O)CC(C)(C)CC2=O)n1	-1.2	-7	101	i	0.97	-12	119
CC1(C)CC(=O)C=C(NCc2ccc(Cl)c(Cl)c2)C1	-1.4	2	105	i	1.1	.	.
CCc1cc2cc3c(cc2nc1SCC(=O)OC(C)C)OCO3	.	-1	99	i	1.1	-10	106
O=C(Nc1cccnc1)NC1CCCCC1	.	-3	104	i	1.1	40	106
O=C(O)c1ccc2c(c1)C(=O)N(C(Cc1ccc(O)cc1)C(=O)O)C2=O (stereo not drawn)	-0.4	-13	103	i	1.1	.	.
c1ccc(-n2c(SCC3CCCCO3)nnc2-c2cnccn2)cc1 (stereo not drawn)	-1.5	-5	102	i	0.89	23	107
CCCc1nc(SCC(=O)NNC(=O)c2ccc(OC)cc2)c2ccccc2n1	.	1	102	i	0.92	.	.
CCOc1ccccc1NC(=O)CN(C)S(=O)(=O)c1ccc(OC)c(C)c1	2.3	0	102	i	1	3	47
Cc1cccc(C)c1NC(=S)N(c1ccccc1)C(C)C	0.1	-4	99	i	0.98	.	.
Cc1ccc(S(=O)(=O)CC(c2ccccc2)N2CCCCC2)cc1 (stereo not drawn)	.	2	92	i	0.8	.	.
Nc1nc(CCl)nc(Nc2ccc3ccccc3c2)n1	.	.	100	i	0.54	.	.
Cc1ccc(C)c(OCC(=O)Nc2cccc(C(=O)O)c2)c1C	-0.9	-10	106	i	0.73	7	127
CC(C)(C)N(C(=O)Cn1nnc(-c2ccc(F)cc2)n1)C(C(=O)NC1CCCC1)c1ccncc1 (stereo not drawn)	-0.6	-5	99	i	0.62	-132	105
O=C(Nc1ccc(OC(F)(F)F)cc1)c1ccc(-n2cncn2)nc1	.	-9	107	i	1	.	.
Cc1cc(-c2ccccc2N)n[nH]1	-1.6	1	92	i	1	3	65
CCOC(=O)CSc1nnc(CNC(=O)c2ccc(OC)c(OC)c2)n1C	-3.3	-5	107	i	0.84	0	139
Cc1cc(=O)oc2cc(OCC(=O)NCCc3nc4ccccc4[nH]3)ccc12	-0.8	-21	99	i	0.81	.	.
COC(=O)c1cn(Nc2ncc(C(F)(F)F)cc2Cl)c(=O)c2ccccc12	0.2	2	100	i	1.1	44	157
O=C(NCCc1c[nH]c2ccccc12)c1cc2ccccc2oc1=O	.	-5	94	i	1.1	.	.
O=c1cc(CSc2ccccn2)[nH]c(=O)[nH]1	-2.0	-6	106	i	0.99	-9	121
COC(=O)c1[nH]c2cc(OC)ccc2c1NC(=O)CCN1CCN(c2ccccc2)CC1	-0.2	-6	102	i	0.91	-66	107
O=C1N(Nc2ccccc2)C(c2ccc(Br)cc2)C12CCCC2 (stereo not drawn)	-0.1	-7	96	i	0.95	-43	114
COc1cc(-c2n[nH]c(=S)n2-c2ccc(C)cc2)cc(OC)c1OC	.	-4	92	i	1.3	.	.
COCCCNc1ccnc2c(Cl)cccc12	-1.1	-6	.	i	1.1	9	141
CCOc1ncccc1C(=O)Oc1ccc2c(c1)OCO2	-1.5	0	99	i	0.98	36	122
O=C(COC(=O)/C=C/c1ccc(Cl)cc1Cl)Nc1ccc2c(c1)OCCO2	.	0	100	i	1	18	91
CCOC(=O)c1sc2nc(C)nc(SCC(=O)NC3CCS(=O)(=O)C3)c2c1C (stereo not drawn)	.	-12	116	i	0.96	43	51
O=C(CN1CCOCC1)c1c[nH]c2ccccc12	-1.1	0	102	i	1	-16	59
CC(=O)N1CC=C2C(C#N)=C(N)C(C#N)(C#N)C(CCc3ccccc3)C2C1 (stereo not drawn)	-1.7	0	.	i	0.96	.	.
CCn1c(SC)nc(O)c(C(c2ccc(OC)c(O)c2)c2c(O)nc(SC)n(CC)c2=O)c1=O	0.6	-4	104	.	.	10	135
FC(F)(F)c1ccc(CN2C[C@@H]3C(c4ccc(Cl)nc4)C4(c5ccccc5)CC3(C4)[C@H]2c2ccccc2)cc1 (stereo partly drawn)	.	.	100	i	1	.	.
COc1ccc(N2CCN(C(=O)CSc3nc4[nH]ncc4c(=O)n3-c3ccc(Br)cc3)CC2)cc1	.	1	105	i	0.91	-36	135

Gathered by group: the compounds so far with a Cl atom (6)
SMILES	GALR2 ag	PKD1 inh	RGS16-Gao	HSV augment	HSV augment primary fold	Insulin prom inh	Insulin prom inh cell count
CC1(C)CC(=O)C=C(NCc2ccc(Cl)c(Cl)c2)C1	-1.4	2	105	i	1.1	.	.
Nc1nc(CCl)nc(Nc2ccc3ccccc3c2)n1	.	.	100	i	0.54	.	.
COC(=O)c1cn(Nc2ncc(C(F)(F)F)cc2Cl)c(=O)c2ccccc12	0.2	2	100	i	1.1	44	157
COCCCNc1ccnc2c(Cl)cccc12	-1.1	-6	.	i	1.1	9	141
O=C(COC(=O)/C=C/c1ccc(Cl)cc1Cl)Nc1ccc2c(c1)OCCO2	.	0	100	i	1	18	91
FC(F)(F)c1ccc(CN2C[C@@H]3C(c4ccc(Cl)nc4)C4(c5ccccc5)CC3(C4)[C@H]2c2ccccc2)cc1 (stereo partly drawn)	.	.	100	i	1	.	.

The listing continues.
SMILES	GALR2 ag	PKD1 inh	RGS16-Gao	HSV augment	HSV augment primary fold	Insulin prom inh	Insulin prom inh cell count
COc1ccc(-n2nnnc2SCC(=O)Nc2ccccc2)cc1	-2.1	-9	96	i	1.1	-50	72
CNC(=S)SCCOc1ccccc1C	-1.4	-4	105	i	0.96	.	.
COc1cc(OC)c2c(-c3ccccc3)cc(=O)oc2c1C(CC(=O)N1CCOCC1)c1ccc2c(c1)OCO2 (stereo not drawn)	.	.	101	i	0.69	.	.
O=C(CCSc1nc(-c2ccco2)cc(C(F)(F)F)n1)N1CCN(c2ccccn2)CC1	-1.0	9	106	i	0.9	-24	141
CC(C)(C)NC(=O)CN(Cc1cccs1)C(=O)CCC(=O)Nc1nccs1	-3.2	-7	109	i	0.91	-117	118
O=C(CN1CCN(C(c2ccccc2)c2ccccc2)CC1)N1N=CCC1c1ccccc1 (stereo not drawn)	.	.	100	i	0.99	.	.
CC(=O)Nc1sc2c(c1C(N)=O)CCCC2	-7.6	-4	101	i	0.85	16	180
CNC(=O)COC(=O)/C=C/c1nc2ccccc2s1	.	-11	102	i	0.72	-73	136
CC(NC(=O)NC(N)=O)(C(F)(F)F)C(F)(F)F	-2.4	-3	103	i	1.1	38	72
CCc1nnc2n1N=C(c1cccc([N+](=O)[O-])c1)CS2	.	.	104	i	0.89	.	.
Cc1scc(C(=O)NNC(=S)NCC2CCCO2)c1-c1ccccc1 (stereo not drawn)	-2.4	0	22*	i	0.93	25	142
CCOc1ccc(/C(O)=C2/C(=O)C(=O)N(CCN(CC)CC)C2c2cccs2)cc1 (stereo not drawn)	.	.	99	i	0.89	.	.
CSCCC(NC(=O)C1CCC(C)CC1)C(=O)NCc1ccco1 (stereo not drawn)	-0.6	-3	82	i	1.2	-29	88
CN(C)C(=O)CNC(=O)C1CCCCC1	-1.4	-10	105	i	1	-38	117
Cc1nnc(SCCn2c(N3CCC(Cc4ccccc4)CC3)nc3c2c(=O)[nH]c(=O)n3C)s1	.	.	97	i	0.84	.	.
O=C(Nc1ccccc1C(=O)N1CCCC1)c1ccccc1	-1.4	-8	104	i	1	-54	110
CCOC(=O)c1cnc(SCc2nc(N)nc(Nc3ccc(OC)cc3)n2)nc1N	-2.4	-2	178	i	0.68	29	95
CC(=O)c1cccc(NC(=O)Nc2cc3sccc3n2C)c1	-1.0	2	94	i	0.77	.	.
Cc1ccc2cc(CN(Cc3ccco3)C(=O)NC3CCCCC3)c(=O)[nH]c2c1C	-1.0	-2	96	i	0.89	66	137
Cc1ccc(C(C)C)c(OCC(=O)NN=C(CCl)CCl)c1	.	.	98	i	1	.	.
Oc1ccc(/C=N/Nc2cccc3cccnc23)c(O)c1	-2.3	11	94	i	0.65	46	107
COc1ccc(C2CC(c3ccccc3)=NN2c2ccc(Cl)c(C(=O)O)c2)cc1 (stereo not drawn)	.	-4	105	i	0.96	.	.
c1ccc2c(c1)nc1sccn12	-1.2	-5	112	i	0.97	52	99
CCCC(=O)NC(=S)Nc1cc(-c2nc3ncccc3o2)ccc1C	.	.	96	i	1	.	.
COc1ccc(-n2c(-c3ccc(Br)cc3)c[n+]3c2CCc2ccccc2-3)cc1	-1.8	4	101	i	0.9	25	89
O=C1CC(c2ccccc2)n2nc(NC(=O)C3CCCO3)nc2N1 (stereo not drawn)	-0.5	-2	105	i	1.1	-10	72
CC12CC3(C)CC(C)(C1)CC(C(=O)NC1=NCCS1)(C2)C3	-0.8	-3	.	i	0.93	-14	112
CC(C)Nc1nc(Cl)nc(N(C#N)CN2C(=O)c3ccccc3C2=O)n1	0.7	9	106	i	0.98	50	86
O=C(Nc1ccc2c(c1)nc1n2CCSC1)c1ccccc1	-0.1	-6	100	i	0.91	-100	128
C=C(C)c1cccc(C(C)(C)NC(=O)N2CCCC(C(N)=O)C2)c1 (stereo not drawn)	-2.4	-5	106	i	0.85	38	151
CC1CCC2(CC1)NC(=O)N(CC(=O)Nc1cccc(S(=O)(=O)N3CCOCC3)c1)C2=O (stereo not drawn)	.	.	86	i	1	.	.
Cc1ccc(S(=O)(=O)CCC(=O)OC(C)C(=O)c2c(C)[nH]c3ccccc23)cc1 (stereo not drawn)	-2.9	14	101	i	0.94	0	128
COc1ccc(S(=O)(=O)N2CCOCC2)cc1NC(=O)CSc1n[nH]c(=O)n1C1CC1	-0.3	-6	95	i	0.94	32	102
O=C(N/N=C/c1ccc(Cl)c([N+](=O)[O-])c1)c1cc(-c2ccccc2)nc2ccccc12	.	-2	106	i	0.58	-5	101
CCCn1c2ccccc2c2nnc(SCC(=O)Nc3c(C)n(C)n(-c4ccccc4)c3=O)nc21	-0.2	-17	103	i	1.1	0	98
Cc1[nH]c2ccccc2c1C(C[N+](=O)[O-])c1cccs1 (stereo not drawn)	.	-5	119	i	1	9	126
CCOC(=O)C1CCN(C(=O)COC(=O)COc2ccccc2OC)CC1	-2.4	1	103	i	0.9	.	.
O=[N+]([O-])c1ccccc1S(=O)(=O)NC1CCCC1	.	6	38	i	0.84	43	92
O=c1cc(CSc2nnc(-c3ccccc3)o2)c2ccccc2[nH]1	0.3	-2	101	i	1.2	.	.
O=C(CSc1nc(O)c(C2CCCCC2)c(=O)[nH]1)N1CCOCC1	.	12	114	i	1	43	110
C=CCNc1ncnc2c1cnn2-c1ccc(C)cc1C	-0.9	-3	98	i	0.98	43	96
NNc1ccccc1C(F)(F)F	.	-1	117	i	0.95	.	.
Cc1ccc2nc(C3CCCN(C(=O)NCc4ccccc4)C3)[nH]c2c1 (stereo not drawn)	-3.5	14	97	i	0.96	.	.
N#Cc1cccc(CSc2nnc(CCCO)n2-c2ccccc2)c1	0.1	9	101	i	1	.	.
CCOc1cc(N2CCOCC2)c(OCC)cc1NC(=O)COC(=O)c1cc(C)cc(C)c1	-1.5	-4	98	i	0.94	.	.
C/C(Cl)=C\Cn1c(O)c(N=NC(N)=S)c2ccccc21	.	3	100	i	0.86	-27	137
O=C(CCSc1ccccc1)NCCSCc1ccco1	-2.2	-3	99	i	1.1	.	.
N#CC1(C#N)C2=C(CCCC2)NC(c2ccccc2)C1(C#N)C#N (stereo not drawn)	-2.5	18	99	?	.	-10	102
O=C(CCCCCn1c(=S)[nH]c2ccc(N3CCOCC3)cc2c1=O)NCc1cccc(Cl)c1	.	-7	94	i	0.8	.	.
